Assay outcomes deposited in PubChem BioAssay by Broad Institute.
Vaccinia stage: blocks a specific stage of Vaccinia orthopoxvirus infection. Vaccinia-infected cells, mCherry/Venus stage reporter fluorescence; stronger effect = lower value; some inactives read as strong as hits. activity change (mCherry), % (concentration not given with the values). hit rate 0.01% among 89,000. AID 1053133;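 active = mCherry past -33% and 40 or more points under the early reporter, replicates agreeing; inconclusive = past -33% without that gap or agreement; tested in A549 cells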;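 note: scaled between vehicle wells and reference inhibitor wells; 23 nL library stock went into each well; one replicate is shown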
Vaccinia stage Venus: second read-out of Vaccinia stage, no call of its own (marks repeat the call); activity change (Venus), %; measured here: Venus reporter, other viral stage;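 negative = less Venus signal; first of two replicates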
Starred values were filed as active, the others as inactive; ? = inconclusive; · = no result given; & = joins results of further samples. This is a subset. The share of hits here may be higher or lower than overall.

SMILES | Vaccinia stage | Vaccinia stage Venus
C[C@@H]1CN([C@@H](C)CO)C(=O)c2cc(-c3cccnc3)cnc2O[C@H]1CN(C)C | 24 | 7
C[C@@H]1CN([C@H](C)CO)C(=O)c2cccc(NC(=O)c3nc4ccccc4s3)c2O[C@@H]1CN(C)C(=O)Nc1ccccc1 | -9 | -7
Cc1ccc(S(=O)(=O)N[C@H]2CC[C@H](CC(=O)NCc3ccccc3F)O[C@@H]2CO)cc1 | -10 | -16
C[C@@H]1CCCCO[C@@H](CN(C)S(=O)(=O)c2cccs2)[C@H](C)CN([C@H](C)CO)C(=O)c2cc(NC(=O)Nc3ccccc3)ccc2O1 | -3 | 11
O=C(C[C@H]1C[C@@H]2c3cc(NC(=O)Nc4ccccc4F)ccc3O[C@@H]2[C@@H](CO)O1)NC1CCCCC1 | ? | ·
Cc1noc(C)c1S(=O)(=O)Nc1ccc2c(c1)C(=O)N([C@@H](C)CO)C[C@H](C)[C@H](CN(C)Cc1ccc(Cl)c(Cl)c1)O2 | -26 | -14
C[C@H]1CN([C@@H](C)CO)C(=O)c2cc(C#CC3(O)CCCC3)cnc2O[C@H]1CN(C)C(=O)C1CC1 | 35 | 24
CCCNC(=O)N(C)C[C@@H]1Oc2cc(-c3ccncc3)ccc2S(=O)(=O)N([C@H](C)CO)C[C@H]1C | 15 | 7
C[C@@H]1CN([C@H](C)CO)C(=O)Cc2cc(NC(=O)Nc3ccccc3)ccc2O[C@@H]1CN(C)Cc1ccncc1 | 3 | -1
O=C(C[C@H]1C[C@@H]2c3cc(NS(=O)(=O)c4ccccc4)ccc3O[C@@H]2[C@H](CO)O1)NC1CCCC1 | -1 | 4
C[C@H]1CN([C@@H](C)CO)S(=O)(=O)c2ccc(-c3ccccc3)cc2O[C@H]1CN(C)S(=O)(=O)c1ccccc1F | ? | ·
O=C(C[C@H]1CC[C@H]2[C@@H](COC[C@@H](O)CN2S(=O)(=O)c2ccc(Oc3ccccc3)cc2)O1)Nc1ccccc1 | ? | ·
C[C@H](CO)N1C[C@H](C)[C@@H](CN(C)S(=O)(=O)c2ccc(F)cc2)OCc2ccccc2-c2c(n(C)c3ccccc23)C1=O | -30 | -34
COc1ccc(-c2ccc3c(c2)O[C@H](CN(C)Cc2cccnc2)[C@H](C)CN([C@H](C)CO)S3(=O)=O)cc1 | ? | ·
CCCNC(=O)Nc1ccc2c(c1)OC[C@H](C)N(C(=O)C1CC1)C[C@H](C)[C@H](OC)CN(C)C2=O | 10 | 16
O=C(C[C@H]1C[C@@H]2c3cc(NC(=O)NC4CCCCC4)ccc3O[C@@H]2[C@H](CO)O1)NCC1CC1 | 1 | 0
O=C(C[C@H]1CC[C@H]2[C@@H](COC[C@H](O)CN2C(=O)Nc2ccc(C(F)(F)F)cc2)O1)NC1Cc2ccccc2C1 | ? | ·
COc1ccc(CCNC(=O)[C@@]2(Cc3ccccc3I)c3ccccc3C(=O)N(Cc3ccccc3OC)[C@H]2c2ccc(CO)cc2)cc1 | -13 | -18
COCCOC(=O)N1C(=O)[C@@]2(c3cc(C#CCNC(N)=O)ccc31)[C@H](C(=O)N1CCc3cc(OC)c(OC)cc3C1)[C@H]1C(=O)O[C@H](c3ccccc3)[C@H](c3ccccc3)N1[C@@H]2c1ccccc1OCCO | 5 | 1
C[C@H]1CCCCO[C@@H](CN(C)C(=O)CCCN(C)C)[C@@H](C)CN([C@@H](C)CO)C(=O)c2cc(NC(=O)C3CCCCC3)ccc2O1 | 7 | 2
O=C(Cc1ccncc1)NCC[C@@H]1CC[C@@H](NC(=O)C2CC2)[C@@H](CO)O1 | 4 | -1
CO[C@H]1CN(C)C(=O)c2ccc(NC(=O)c3ccno3)cc2OC[C@H](C)N(S(C)(=O)=O)C[C@@H]1C | 7 | 13
O=C(C[C@@H]1C[C@H]2c3cc(NC(=O)NC4CCCCC4)ccc3O[C@H]2[C@H](CO)O1)NCc1ccccc1 | 12 | 17
C/C=C/c1ccc([C@H]2[C@@H](CO)N(C(=O)CC3CC3)C23CN(S(C)(=O)=O)C3)cc1 | 10 | 18
C[C@H](CO)N1C[C@H](C)[C@@H](CN(C)Cc2ccc3c(c2)OCO3)Oc2c(NC(=O)C3CCCCC3)cccc2C1=O | -20 | -16
COc1cccc(S(=O)(=O)N[C@H]2CC[C@H](CC(=O)NC3Cc4ccccc4C3)O[C@H]2CO)c1 | 11 | 11
COC(=O)C[C@@H]1CC[C@@H]2[C@H](COc3ccc(NC(=O)c4ccc(C(F)(F)F)cc4)cc3C(=O)N2C)O1 | -21 | -22
C[C@H]1CN([C@@H](C)CO)C(=O)c2ccccc2-c2ccccc2CO[C@H]1CN(C)Cc1ccc(C(F)(F)F)cc1 | ? | ·
CO[C@H](CN(C)Cc1nccs1)[C@@H](C)CN([C@H](C)CO)S(=O)(=O)c1ccc(F)cc1 | -2 | 3
CN1[C@@H]2CN(C(=O)C3CCCCC3)c3ccccc3[C@@H]2[C@@H]1CO | -23 | -21
C[C@@H]1CN([C@@H](C)CO)C(=O)Cc2cc(NC(=O)C3CC3)ccc2O[C@H]1CN(C)Cc1ccc2c(c1)OCO2 | 3 | 3
C[C@@H]1CN([C@@H](C)CO)C(=O)c2cc(NC(=O)C3CCCCC3)ccc2O[C@@H](C)CCCCO[C@H]1CN(C)S(=O)(=O)c1ccccc1 | -14 | -8
CNC[C@@H]1Oc2c(NC(=O)Nc3ccc(OC)cc3)cccc2C(=O)N([C@H](C)CO)C[C@@H]1C | -2 | -4
COc1ccccc1S(=O)(=O)N[C@@H]1CC[C@H](CC(=O)N2CCN(C)CC2)O[C@H]1CO | 16 | 20
OC[C@@H]1[C@H](c2ccc(-c3cccnc3)cc2)[C@@H]2CN(Cc3ccccn3)CCCCN12 | 17 | -7
Cc1ccc(S(=O)(=O)N(C)C[C@H]2Oc3c(NC(=O)c4cc(C)nn4C)cccc3C(=O)N([C@@H](C)CO)C[C@H]2C)cc1 | -9 | -4
CCS(=O)(=O)N1[C@H](CO)[C@H](c2ccccc2)[C@@H]1CN(C)Cc1ccccn1 | 11 | 16
CC=Cc1ccc2n(c1=O)C[C@@H]1[C@@H](CO)[C@H](C(=O)Nc3nccs3)N(C(=O)CC)[C@H]21 (mixture of isomers) | 14 | 7
CCNC(=O)C[C@H]1CC[C@@H]2[C@H](COC[C@@H](O)CN2C(=O)c2cccnc2)O1 | 40 | 29
O=C(NCCc1ccccc1)[C@H]1[C@H](CO)[C@H]2Cn3c(cccc3=O)[C@@H]1N2CC1CC1 | 8 | 5
CCCN(C)C[C@H]1Oc2ncc(-c3cccc(C#N)c3)cc2C(=O)N([C@@H](C)CO)C[C@H]1C | 1 | 3
CN1c2ccc(-c3ccccc3)cc2[C@@H]2[C@@H](CCN2C(=O)NC2CCCC2)[C@H]1CO | 3 | 4
Cc1noc(C)c1NC(=O)Nc1ccc2c(c1)C(=O)N([C@@H](C)CO)C[C@@H](C)[C@@H](CN(C)C)O2 | 18 | 9
C[C@@H](O)C#Cc1ccc([C@@H]2[C@H]3CN(C(=O)c4ccc5c(c4)OCO5)CCCCN3[C@H]2CO)cc1 | 19 | 14
COCC#Cc1ccc([C@@H]2[C@@H](CO)N3C(=O)CN(C(=O)Nc4ccccc4F)C[C@@H]23)cc1 | 10 | 15
COc1ccc(S(=O)(=O)Nc2ccc3c(c2)C(=O)N([C@H](C)CO)C[C@@H](C)[C@@H](CN(C)C(=O)NC2CCCCC2)OCCCC[C@@H](C)O3)cc1 | ? | ·
CCCc1cn(CC[C@H]2CC[C@H](NS(=O)(=O)c3ccc(-c4ccccc4)cc3)[C@@H](CO)O2)nn1 | ? | ·
O=C(O)[C@@H]1[C@@H](CO)[C@@H]2Cn3c(ccc(/C=C/c4ccccc4)c3=O)[C@@H]2N1Cc1ccc2c(c1)OCO2 | -12 | -8
O=C(C[C@@H]1CC[C@@H]2[C@H](COC[C@H](O)CN2S(=O)(=O)c2ccccc2)O1)Nc1ccccc1 | -10 | -5
Cc1noc(C)c1NC(=O)N(C)C[C@@H]1Oc2ncc(C#Cc3cccc(F)c3)cc2C(=O)N([C@H](C)CO)C[C@@H]1C | 9 | -2
O=C(Cc1ccncc1)N1CCCCN2[C@H](CO)[C@@H](c3ccc(C#Cc4ccccc4F)cc3)[C@H]2C1 | -15 | -16
COc1ccc2c3c(n(C)c2c1)[C@@H](CO)N(C(=O)Nc1ccc(F)cc1)CC31CCN(C)CC1 | -20 | -12
COCC(=O)Nc1ccc2c(c1)C(=O)N(C)[C@H]1CC[C@@H](CC(=O)NCCc3ccncc3)O[C@@H]1CO2 | -4 | 11
C[C@H](CO)N1C[C@H](C)[C@@H](CN(C)C(=O)Nc2ccc(F)cc2)Oc2ccc(N(C)C)cc2CC1=O | 2 | -1
C[C@@H]1CN([C@@H](C)CO)C(=O)CCCn2nncc2CO[C@@H]1CN(C)C(=O)Oc1ccccc1 | 15&9 | 10&10
CN1C(=O)c2cc(NC(=O)C3CCC3)ccc2OC[C@@H]2O[C@@H](CC(=O)NCc3ccccc3F)CC[C@H]21 | 8 | 0
COCC(=O)N(C)C[C@H]1Oc2cc(-c3cccc(F)c3)ccc2S(=O)(=O)N([C@@H](C)CO)C[C@@H]1C | -2 | -2
Cc1noc(C)c1NC(=O)Nc1ccc2c(c1)C(=O)N(C)[C@H]1CC[C@H](CC(=O)N(C)C)O[C@@H]1CO2 | 10 | 8
CC(C)C(=O)Nc1ccc2c(c1)C(=O)N(C)[C@@H]1CC[C@@H](CC(=O)Nc3ccccc3)O[C@@H]1CO2 | -13 | 0
CC(C)NC(=O)Nc1ccc2c(c1)C(=O)N(C)[C@@H]1CC[C@@H](CC(=O)NCC3CCCCC3)O[C@@H]1CO2 | 6 | 11

10 of the compounds above, with two lines to a compound.
Each structure is followed by: Vaccinia stage	Vaccinia stage Venus
- COc1ccc(-c2ccc3c(c2)O[C@H](CN(C)Cc2cccnc2)[C@H](C)CN([C@H](C)CO)S3(=O)=O)cc1
→ ?	·
- CCCNC(=O)Nc1ccc2c(c1)OC[C@H](C)N(C(=O)C1CC1)C[C@H](C)[C@H](OC)CN(C)C2=O
→ 10	16
- O=C(C[C@H]1C[C@@H]2c3cc(NC(=O)NC4CCCCC4)ccc3O[C@@H]2[C@H](CO)O1)NCC1CC1
→ 1	0
- O=C(C[C@H]1CC[C@H]2[C@@H](COC[C@H](O)CN2C(=O)Nc2ccc(C(F)(F)F)cc2)O1)NC1Cc2ccccc2C1
→ ?	·
- COc1ccc(CCNC(=O)[C@@]2(Cc3ccccc3I)c3ccccc3C(=O)N(Cc3ccccc3OC)[C@H]2c2ccc(CO)cc2)cc1
→ -13	-18
- COCCOC(=O)N1C(=O)[C@@]2(c3cc(C#CCNC(N)=O)ccc31)[C@H](C(=O)N1CCc3cc(OC)c(OC)cc3C1)[C@H]1C(=O)O[C@H](c3ccccc3)[C@H](c3ccccc3)N1[C@@H]2c1ccccc1OCCO
→ 5	1
- C[C@H]1CCCCO[C@@H](CN(C)C(=O)CCCN(C)C)[C@@H](C)CN([C@@H](C)CO)C(=O)c2cc(NC(=O)C3CCCCC3)ccc2O1
→ 7	2
- O=C(Cc1ccncc1)NCC[C@@H]1CC[C@@H](NC(=O)C2CC2)[C@@H](CO)O1
→ 4	-1
- CO[C@H]1CN(C)C(=O)c2ccc(NC(=O)c3ccno3)cc2OC[C@H](C)N(S(C)(=O)=O)C[C@@H]1C
→ 7	13
- O=C(C[C@@H]1C[C@H]2c3cc(NC(=O)NC4CCCCC4)ccc3O[C@H]2[C@H](CO)O1)NCc1ccccc1
→ 12	17

(list continues)
SMILES | Vaccinia stage | Vaccinia stage Venus
Cc1noc(C)c1S(=O)(=O)Nc1ccc2c(c1)C(=O)N([C@@H](C)CO)C[C@@H](C)[C@@H](CN(C)C(=O)NC(C)C)OCCCC[C@H](C)O2 | 5 | 5
COc1ccc(NC(=O)N[C@H]2CC[C@H](CC(=O)NCc3ccccn3)O[C@H]2CO)cc1 | 0 | 4
CC=Cc1ccc2n(c1=O)C[C@@H]1[C@@H](CO)[C@H](C(=O)Nc3nccs3)N(Cc3cc(F)ccc3F)[C@H]21 (mixture of isomers) | 5 | 9
C[C@H](CO)N1C[C@H](C)[C@@H](CN(C)C(=O)CN2CCOCC2)Oc2ncc(-c3ccncc3)cc2C1=O | 21 | 10
Cc1noc(C)c1NC(=O)Nc1cccc2c1O[C@@H](CN(C)C)[C@H](C)CN([C@H](C)CO)C2=O | 18 | 13
C[C@@H]1CCCCO[C@@H](CN(C)Cc2ccc3c(c2)OCO3)[C@@H](C)CN([C@H](C)CO)C(=O)c2cc(NS(=O)(=O)c3ccc(Cl)cc3)ccc2O1 | ? | ·
C[C@@H]1CCCCO[C@H](CN(C)CC2CCCCC2)[C@H](C)CN([C@@H](C)CO)C(=O)c2cc(NS(=O)(=O)c3cccs3)ccc2O1 | ? | ·
C[C@@H]1CN([C@@H](C)CO)C(=O)CCCn2nncc2CO[C@H]1CN(C)Cc1ccc2c(c1)OCCO2 | 13 | 11
COc1ccc(NC(=O)N(C)C[C@@H]2Oc3ncccc3C(=O)N([C@H](C)CO)C[C@@H]2C)cc1 | 35 | 14
O=C(C[C@@H]1C[C@@H]2c3cc(NC(=O)Nc4ccc(C(F)(F)F)cc4)ccc3O[C@@H]2[C@H](CO)O1)NCc1cc(F)ccc1F | 15 | 12
COc1ccc(S(=O)(=O)Nc2ccc3c(c2)C(=O)N([C@@H](C)CO)C[C@@H](C)[C@H](CN(C)Cc2ccc(C(=O)O)cc2)OCCCC[C@@H](C)O3)cc1 | 7 | 5
C/C=C/c1ccc2c(c1)O[C@@H](CN(C)Cc1ccc(F)cc1)[C@@H](C)CN([C@H](C)CO)S2(=O)=O | ? | ·
COc1cccc(CNC(=O)C[C@H]2C=C[C@@H](NC(C)=O)[C@H](CO)O2)c1 | 3 | 9
COc1ccc2c3c(n(C)c2c1)[C@H](CO)N(C(=O)CN1CCOCC1)CC31CN(C(=O)Nc2cccc(F)c2)C1 | -7 | -12
COc1ccccc1S(=O)(=O)N[C@H]1CC[C@@H](CC(=O)N2CCCCC2)O[C@@H]1CO | 9 | 14
C[C@@H](O)C#Cc1ccc([C@@H]2[C@@H](CO)N3CCCCN(C(=O)Nc4ccccc4)C[C@@H]23)cc1 | 8 | 2
